rRNA inh HTS – inhibits bacterial ribosomal RNA function over humanized ribosomes. E. coli WT GFP vs humanized-ribosome RFP mutants, fluorescence, 24 h; stronger effect = lower value; DMSO median 0, no signal -100. GFP signal change (wild-type ribosome), % (no concentration beside the values). 1.6% of 350,000 active. AID 720706;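 active = significant combined selectivity score with lowered wild-type GFP, culture density cut under 30%, mutant RFP and density less affected; inactive = any of these conditions unmet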; note: one replicate is shown; some compounds called inactive have numbers as strong as hits
AF4-AF9 inh – MLL-AF4/AF9 protein interaction inhibition. AlphaScreen, biotin-AF4 peptide binding to FLAG-AF9. inhibition, % at 10 µM. 0.47% of 350,000 active;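 active = every replicate reaching a set inhibition limit, whatever the replicate mean, cut at about 25% in these data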;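 note: 0% = plate neutral control median and 100% = total signal loss; the record names both 10 and 1 µM as test concentration; the first replicate is given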
Target sequence (P42568 whole entry, looked up): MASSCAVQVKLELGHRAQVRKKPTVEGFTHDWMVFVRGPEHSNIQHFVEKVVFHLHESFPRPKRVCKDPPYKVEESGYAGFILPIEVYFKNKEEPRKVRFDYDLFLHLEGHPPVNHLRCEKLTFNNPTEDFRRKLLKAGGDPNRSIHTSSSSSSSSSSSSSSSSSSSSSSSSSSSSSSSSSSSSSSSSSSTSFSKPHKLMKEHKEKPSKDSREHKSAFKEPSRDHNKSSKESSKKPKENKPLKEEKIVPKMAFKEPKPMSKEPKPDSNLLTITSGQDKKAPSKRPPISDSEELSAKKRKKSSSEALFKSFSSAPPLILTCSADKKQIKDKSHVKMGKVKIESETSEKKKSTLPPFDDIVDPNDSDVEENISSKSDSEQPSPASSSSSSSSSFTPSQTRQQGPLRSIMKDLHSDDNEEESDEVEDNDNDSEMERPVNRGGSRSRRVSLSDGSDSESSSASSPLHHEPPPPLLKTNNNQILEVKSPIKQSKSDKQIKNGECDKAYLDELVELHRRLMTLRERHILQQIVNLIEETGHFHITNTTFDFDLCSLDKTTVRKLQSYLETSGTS
rRNA inh HTS OD600 – further read-out of rRNA inh HTS, marked with its call; OD600 change, %; measured here: OD600 growth;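 optical density of the mix in the first replicate; 0 = DMSO median and -100 = no signal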
rRNA inh HTS RFP – recorded beside rRNA inh HTS, whose call it bears; RFP signal change, %; measured here: RFP humanized mutant strains;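 first replicate; 0 = DMSO median and -100 = no signal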
* marks the source's active call; other numbers are inactive results; & = joins results of further samples. A portion of the library. The share of hits here may be higher or lower than overall.

SMILES | rRNA inh HTS | rRNA inh HTS OD600 | rRNA inh HTS RFP | AF4-AF9 inh
CCCC(=O)Nc1ccc2c(c1)OC[C@H](C)N(Cc1ccccn1)C[C@@H](C)[C@H](OC)CN(C)C2=O | -1.6 | 4.8 | -0.9 | -2.6
C[C@H]1CN([C@@H](C)CO)C(=O)Cc2cc(NS(=O)(=O)c3cn(C)cn3)ccc2O[C@H]1CN(C)Cc1ccc(C(=O)O)cc1 | 3.8 | -1.2 | -3.2 | -3.7
C[C@H]1CN([C@@H](C)CO)C(=O)c2cccc(NC(=O)Nc3ccc(C(F)(F)F)cc3)c2O[C@H]1CN(C)S(=O)(=O)c1ccc(Cl)cc1 | 2.9 | 6.4 | -0.6 | -0.2
COc1ccc(NC(=O)Nc2ccc3c(c2)C(=O)N([C@H](C)CO)C[C@@H](C)[C@H](CN(C)C(=O)Nc2c(C)noc2C)O3)cc1 | -0.3 | -0.2 | -1.6 | -5.3
CCCNC(=O)C[C@@H]1CC[C@H]2[C@@H](COC[C@@H](O)CN2C(=O)Nc2ccccc2OC)O1 | -1.8 | 7.6 | -3.4 | -12.8
O=C1CNC[C@@H]2[C@@H](c3ccc(C4=CCCC4)cc3)[C@H](CO)N12 | -1.2 | 2.5 | 1.6 | -1.1
CNC[C@@H]1OCCCC[C@@H](C)Oc2ccc(NS(=O)(=O)c3ccc(OC)cc3)cc2C(=O)N([C@H](C)CO)C[C@H]1C | 9.1 | 5.9 | 2.2 | 1.5
COc1ccc(CC(N)c2csc(NC(=O)Nc3cccc(C(F)(F)F)c3)n2)cc1 (configuration not stated) | -61.5 | -81.3 | -17.8 | 8.5
Cn1ccc2c(-c3cncc4ccccc34)cc3c(c21)C1CCC3O1 (configuration not stated) | -49.6 | -80.8 | -13.2 | 3.5
C[C@@H]1CN([C@H](C)CO)S(=O)(=O)c2ccc(C3=CCCC3)cc2O[C@H]1CN(C)C(=O)CC1CC1 | -4.5 | -8.2 | -0.5 | -3.4
CC1(C)CN(c2ccccc2)C(=O)[C@H]1CC(=O)Nc1ccccc1 | -11.7 | -16.5 | -1.4 | 0.5
O=S(=O)(NCC[C@H]1CC[C@@H](NS(=O)(=O)c2ccccc2Cl)[C@@H](CO)O1)c1ccc(Cl)cc1 | -2.8 | -5.0 | 0.3 | -0.1
O=C(Nc1ccc(F)cc1)N[C@@H]1CC[C@H](CCn2cc(C3(O)CCCC3)nn2)O[C@H]1CO | -2.2 | -1.0 | 1.3 | -2.4
C[C@@H]1CN([C@H](C)CO)S(=O)(=O)c2ccc(-c3ccc(F)cc3)cc2O[C@H]1CN(C)C(=O)C1CCOCC1 | -1.5 | -7.1 | -1.0 | -1.0
C[C@H](CO)N1C[C@H](C)[C@@H](CN(C)Cc2ccc(C(=O)O)cc2)Oc2ccc(NC(=O)Nc3ccc4c(c3)OCO4)cc2CC1=O | -3.0 | 1.2 | -0.5 | 2.1
CNC(=O)C[C@@H]1CC[C@H]2[C@@H](COC[C@H](O)CN2Cc2ccc(Cl)c(Cl)c2)O1 | -4.1 | 3.6 | -0.3 | -16.8
COc1ccc(NC(=O)N(C)C[C@H]2Oc3c(NC(=O)C4CCOCC4)cccc3C(=O)N([C@H](C)CO)C[C@@H]2C)cc1 | 4.1 | 10.7 | 0.0 | -12.7
O=C1NCCN1CCNc1nc(NCC2CC2)nc2cc(-c3ccccc3)sc12 | -9.3 | -10.1 | 8.5 | 6.4
C[C@@H]1CCCCO[C@@H](CN(C)S(=O)(=O)c2ccc(F)cc2)[C@@H](C)CN([C@@H](C)CO)C(=O)c2cc(NC(=O)C3CCCCC3)ccc2O1 | 3.4 | -0.5 | -1.2 | -1.4
C[C@@H]1CN([C@H](C)CO)C(=O)c2cc(NC(=O)Nc3ccc(C(F)(F)F)cc3)ccc2O[C@@H](C)CCCCO[C@H]1CN(C)S(C)(=O)=O | -2.7 | -7.2 | 3.2 | 6.2
Cc1noc(C)c1NC(=O)Nc1ccc2c(c1)C(=O)N([C@H](C)CO)C[C@H](C)[C@H](CN(C)S(=O)(=O)c1ccc(F)cc1)O2 | 1.2 | 4.1 | -0.7 | 1.4
Cc1ccc(S(=O)(=O)Nc2ccc3c(c2)C(=O)N([C@H](C)CO)C[C@@H](C)[C@H](CN(C)C(=O)Nc2ccc(F)cc2)OCCCC[C@@H](C)O3)cc1 | 1.3 | -2.1 | 0.0 | 0.0
CCCNC(=O)C[C@@H]1CC[C@@H]2[C@H](COC[C@H](O)CN2C(=O)c2cc(Cl)cc(Cl)c2)O1 | -0.6&7.1 | -8.8&-2.4 | -3.1&-3.0 | -1.8&-1.0
Cc1noc(C)c1NC(=O)Nc1cccc2c1O[C@H](CN(C)Cc1ccc(-c3ccccc3)cc1)[C@H](C)CN([C@H](C)CO)C2=O | -4.2 | 1.2 | -1.1 | -0.7
COC(=O)[C@]12CCCCC=C1N(Cc1ccc(Cl)cc1Cl)C(=O)[C@H](CC(=O)N1CCC(c3ccccc3)CC1)C2 | 13.1 | 15.8 | -0.9 | -2.8
CC(C)NC(=O)N(C)C[C@H]1Oc2c(NC(=O)C3CCOCC3)cccc2C(=O)N([C@@H](C)CO)C[C@H]1C | 5.7 | 2.1 | -3.0 | 0.0
CN(C)CC(=O)N1[C@@H](C#N)[C@H](c2ccccc2-c2cccc(C(=O)N(C)C)c2)[C@@H]1CO | 3.3 | -0.9 | 5.2 | -3.0
CCc1ccc2c(c1)NC(=O)C2(C)Cc1ccccc1 (configuration not stated) | -26.0 | -63.1 | -12.0 | 0.2
CC(C)NC(=O)N(C)C[C@H]1Oc2cc(C#CC3CC3)ccc2S(=O)(=O)N([C@H](C)CO)C[C@H]1C | -0.9 | -1.4 | -1.3 | -2.0
C[C@H]1CN([C@@H](C)CO)C(=O)Cc2cc(NC(=O)Nc3cccc4ccccc34)ccc2O[C@@H]1CN(C)S(=O)(=O)c1cn(C)cn1 | 3.2 | 13.8 | 0.3 | 4.5
O=C(C[C@H]1C=C[C@H](NC(=O)C2CC2)[C@@H](CO)O1)NCc1ccncc1 | 2.2 | 6.5 | -1.5 | 2.2
CC(C)(C)OC(=O)N1CCC[C@@H]1C(=O)NCc1ccccc1Cl | -1.0 | 6.4 | -3.8 | -2.0
Cc1noc(C)c1S(=O)(=O)Nc1ccc2c(c1)C(=O)N([C@@H](C)CO)C[C@@H](C)[C@@H](CN(C)S(=O)(=O)c1ccc(F)cc1)OCCCC[C@@H](C)O2 | -0.1 | -4.6 | 3.1 | 0.3
CO[C@@H]1CN(C)C(=O)c2cc(NC(=O)C3CCCCC3)ccc2OC[C@H](C)NC[C@H]1C | -1.8 | 3.9 | -2.0 | -1.2
C#CCN(Cc1cccc(F)c1)C(=O)c1nnc2c3cc(F)ccc3n(S(=O)(=O)c3ccc(OC)cc3)c2n1 | 7.5 | 9.5 | -3.2 | 0.4
C[C@H](CO)N1C[C@H](C)[C@@H](CN(C)Cc2ccc(C(=O)Nc3ccccc3N)cc2)Oc2c(NS(C)(=O)=O)cccc2C1=O | 5.3 | 19.3 | -0.3 | 3.5
COc1ccccc1CNC(=O)C[C@@H]1C=C[C@H](NC(C)=O)[C@H](CO)O1 | 5.0 | 9.0 | -0.1 | -1.8
COCC(=O)N1CC2(C1)[C@H](c1ccccc1)[C@@H](CO)N2C(=O)c1ccncc1 | 6.3 | 4.5 | -2.9 | -2.0
Cn1cnc(S(=O)(=O)N2CCCCN3[C@@H](CO)[C@@H](c4ccc(-c5cccc(F)c5)cc4)[C@@H]3C2)c1 | 4.3 | -12.2 | -0.3 | 2.5
CC(C)NC(=O)N1C[C@@H]2[C@H](c3ccccc31)[C@@H](CO)N2C(=O)c1ccc(F)cc1 | 6.1 | 13.9 | -1.3 | 0.8

5 consecutive compounds already listed, for reference:
SMILES | rRNA inh HTS | rRNA inh HTS OD600 | rRNA inh HTS RFP | AF4-AF9 inh
C[C@H](CO)N1C[C@H](C)[C@@H](CN(C)Cc2ccc(C(=O)Nc3ccccc3N)cc2)Oc2c(NS(C)(=O)=O)cccc2C1=O | 5.3 | 19.3 | -0.3 | 3.5
COc1ccccc1CNC(=O)C[C@@H]1C=C[C@H](NC(C)=O)[C@H](CO)O1 | 5.0 | 9.0 | -0.1 | -1.8
COCC(=O)N1CC2(C1)[C@H](c1ccccc1)[C@@H](CO)N2C(=O)c1ccncc1 | 6.3 | 4.5 | -2.9 | -2.0
Cn1cnc(S(=O)(=O)N2CCCCN3[C@@H](CO)[C@@H](c4ccc(-c5cccc(F)c5)cc4)[C@@H]3C2)c1 | 4.3 | -12.2 | -0.3 | 2.5
CC(C)NC(=O)N1C[C@@H]2[C@H](c3ccccc31)[C@@H](CO)N2C(=O)c1ccc(F)cc1 | 6.1 | 13.9 | -1.3 | 0.8

Going on with the list:
SMILES | rRNA inh HTS | rRNA inh HTS OD600 | rRNA inh HTS RFP | AF4-AF9 inh
CC(C)NC(=O)N(C)C[C@@H]1Oc2ccc(NC(=O)Nc3ccc(F)cc3)cc2C(=O)N([C@@H](C)CO)C[C@H]1C | 0.3 | 0.3 | -0.5 | -0.2
O=C(Cc1cccnc1)N1CC(=O)N2[C@H](C1)[C@@H](c1ccc(C#CC3CC3)cc1)[C@@H]2CO | -3.8 | -9.9 | -0.2 | 5.1
O=C(C[C@H]1CC[C@@H](NC(=O)c2cccc(F)c2)[C@H](CO)O1)NCCN1CCCC1 | -0.9 | 5.0 | 1.3 | 3.6
O=C(O)C[C@@H]1C[C@H]2c3cc(NC(=O)CC4CC4)ccc3O[C@H]2[C@@H](CO)O1 | 2.3 | 5.0 | -1.1 | -0.7
C[C@@H]1CN([C@H](C)CO)C(=O)Cc2cc(NS(=O)(=O)c3cccs3)ccc2O[C@H]1CN(C)Cc1ccc(-c2ccccc2)cc1 | -0.9 | 1.9 | 1.5 | 1.7
CN1C(=O)c2cc(NC(=O)c3ccccc3F)ccc2OC[C@@H]2O[C@H](CC(=O)NCc3ccc4c(c3)OCO4)CC[C@@H]21 | -6.2 | -13.1 | -0.6 | -0.3
C[C@@H]1CN([C@@H](C)CO)C(=O)c2cc(Br)cnc2O[C@H]1CN(C)Cc1ccc(-c2ccccc2)cc1 | -8.1&-4.6 | -14.0&-13.7 | 3.8&-1.1 | 9.2&13.9
CN1C(=O)c2cc(NC(=O)c3cnccn3)ccc2OC[C@@H]2O[C@H](CC(=O)N[C@@H]3CCN(Cc4ccccc4)C3)CC[C@@H]21 | 1.6 | 8.8 | -3.1 | 4.6
COCC(=O)N(C)C[C@H]1Oc2cc(C#CC(C)(C)O)ccc2S(=O)(=O)N([C@@H](C)CO)C[C@H]1C | 0.2 | 5.7 | -5.6 | -6.7
COc1ccccc1CNS(=O)(=O)CCNCc1ccco1 | 1.8 | 6.0 | -1.3 | -1.9
O=S1(=O)N[C@H](Cc2ccccc2)COc2cc(N3CCC[C@H]3CO)ccc21 | -12.7 | -4.6 | -1.4 | -1.3
COc1cc(CN2CC3(CCN(C(=O)Nc4c(C)noc4C)CC3)c3c(n(C)c4cc(OC)ccc34)[C@@H]2CO)cc(OC)c1 | 3.5 | 4.3 | -0.9 | 9.0
CCCCn1nnnc1C(c1cc2ccccc2o1)N1CCN(c2cc(C)nc3ccccc23)CC1 (configuration not stated) | -10.6 | -32.9 | 7.2 | 0.6
O=C([C@@H]1[C@@H](CO)[C@@H]2Cn3c(ccc(C4=CCCCC4)c3=O)[C@H]1N2Cc1nccs1)N1CCCCC1 | -2.5 | 3.6 | 1.3 | -0.4
CC(=O)NC[C@@H]1[C@@H](c2ccc(-c3cccnc3)cc2)[C@@H](CO)N1C(=O)CC1CC1 | 0.6 | 8.0 | -3.8 | -0.9
COc1ccc(NC(=O)Nc2ccc3c(c2)[C@@H]2C[C@H](CC(=O)NCC4CC4)O[C@@H](CO)[C@@H]2O3)cc1 | -1.7 | 10.1 | 6.8 | -3.3
Cc1ccc(C(O)c2ncc(-c3ccccc3F)[nH]2)c(C)c1 (configuration not stated) | -8.7 | -16.3 | -7.8 | 1.6
C[C@H](CO)N1C[C@H](C)[C@H](CN(C)C(=O)Nc2ccc(C(F)(F)F)cc2)Oc2c(NS(=O)(=O)c3cccs3)cccc2C1=O | -6.7 | -16.7 | -0.6 | 0.0
COc1ccc(NC(=O)N(C)C[C@H]2OCCCC[C@H](C)Oc3ccc(NC(=O)c4ccccc4)cc3C(=O)N([C@H](C)CO)C[C@@H]2C)cc1 | -1.7 | -0.3 | 4.7 | -1.1
C/C=C/c1ccc([C@@H]2[C@@H](CO)N(C(C)=O)[C@H]2CN(CC)C(=O)CN(C)C)cc1 | -0.5 | 0.1 | 0.1 | -0.2
C[C@@H]1CN([C@H](C)CO)C(=O)c2cccc(NC(=O)Nc3ccccc3)c2O[C@@H]1CN(C)C(=O)Nc1ccccc1 | -2.1 | -3.7 | -1.3 | 2.0
C[C@H]1CN([C@@H](C)CO)C(=O)c2cc(NC(=O)C3CC3)ccc2O[C@H]1CN(C)C(=O)Nc1ccccc1 | 0.1 | -1.5 | -2.5 | -0.4
CN(C)C(=O)c1cccc(-c2ccc([C@@H]3[C@H](CO)N4C(=O)CN(C(=O)C5CCCC5)C[C@@H]34)cc2)c1 | 2.1 | 14.2 | -3.7 | 2.5
COc1ccc(S(=O)(=O)NC(=O)C2(C)CCN2C(=O)Cc2ccccc2Cl)cc1OC (configuration not stated) | 6.7 | 14.5 | -2.2 | -1.6
CO[C@@H]1CN(C)C(=O)c2ccc(NC(C)=O)cc2OC[C@@H](C)N(C(=O)CC2CC2)C[C@H]1C | 1.1 | 4.2 | 0.8 | -2.5
C[C@@H]1CN([C@@H](C)CO)S(=O)(=O)c2ccc(C#C[C@@H](C)O)cc2O[C@@H]1CN(C)Cc1ccc(-c2ccccc2)cc1 | -0.2 | -16.9 | 9.3 | -0.5
